Source: PubChem (several laboratories)
MLL AF4-AF9 inh = inhibitors of AF4 peptide binding to AF9, primary screen, biochemical, AlphaScreen, biotin-AF4 peptide, FLAG-AF9, single point | Protein AF-9 (Homo sapiens), P42568 | inhibition, % at 10 µM | hit rate 0.47% among 350,000;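 active means every replicate reaching a set inhibition limit, whatever the replicate mean, cut at about 25% in these data; inconclusive means mean inhibition reaches that limit but some replicates miss it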;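 further: 0% = plate neutral control median and 100% = total signal loss; the record names both 10 and 1 µM as test concentration; the first replicate is given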
Target sequence (P42568 whole entry, looked up): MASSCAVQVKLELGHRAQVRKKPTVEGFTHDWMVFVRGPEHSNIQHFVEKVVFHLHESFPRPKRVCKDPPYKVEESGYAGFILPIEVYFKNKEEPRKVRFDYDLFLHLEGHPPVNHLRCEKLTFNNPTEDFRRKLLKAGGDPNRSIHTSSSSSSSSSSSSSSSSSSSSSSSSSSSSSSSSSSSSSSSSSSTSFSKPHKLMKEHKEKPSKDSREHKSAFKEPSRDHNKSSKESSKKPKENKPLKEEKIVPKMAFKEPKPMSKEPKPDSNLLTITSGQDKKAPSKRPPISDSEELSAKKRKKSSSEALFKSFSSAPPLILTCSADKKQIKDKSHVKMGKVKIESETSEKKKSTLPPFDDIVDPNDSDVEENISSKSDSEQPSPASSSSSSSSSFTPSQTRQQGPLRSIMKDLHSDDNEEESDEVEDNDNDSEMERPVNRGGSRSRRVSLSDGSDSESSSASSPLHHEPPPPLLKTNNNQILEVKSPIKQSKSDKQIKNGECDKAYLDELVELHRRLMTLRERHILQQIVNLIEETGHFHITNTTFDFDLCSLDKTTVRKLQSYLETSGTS
T cruzi repl = inhibitors of intracellular T. cruzi growth, primary screen, luminescence, NIH3T3 host cells | hit rate 1.4% among 300,000 | inhibition, % (no concentration beside the values) | T. cruzi beta-gal in NIH3T3, 90 h;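 active means mean inhibition across valid replicates above about 55%, limit read from the data; inconclusive means mean below that limit but half or more replicates reach it; inactive means mean below it, under half of replicates reach it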;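 further: signal also drops with host cell toxicity which is not excluded here; 0% = plate median of DMSO wells and 100% = zero luminescence signal; higher percent means less beta-gal luminescence so fewer parasites; stock transfer was 50 nL into about 50 µL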
RanGTP-Impb inh = inhibitors of RanGTP-importin-beta interaction, primary screen, biochemical, FRET, CFP-Ran, YFP-importin-beta, homogeneous; cell-free CFP-Ran/YFP-importin-beta FRET ratio; inhibition, % (test concentration not listed); hit rate 1.1% among 300,000;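 active means most replicates above 15%; inconclusive means exactly half above 15%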;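 further: 0% = DMSO wells and 100% = Ran loaded with GDP instead of GTP; wells of about 40 µL received 100 nL stock; the first replicate is given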
Beta apoptosis = inhibitors of cytokine-induced beta cell apoptosis, primary screen, luminescence. INS-1E cytokine-induced death, ATP luminescence, 48 h; percent of positive-control rescue, neutral wells zero. AID 435005, 2010. hit rate 0.8% among 300,000. protection from apoptosis, % (no concentration beside the values);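 active means all replicates at 75% or more, or half of them and the mean; inconclusive means half reach 75% but not the mean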;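 further: 0% = cytokine-treated negative control wells and 100% = positive control rescue; higher means more ATP so stronger rescue from cytokine killing; wells of about 40 µL received 100 nL stock; the first replicate is given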
Vif A3G = inhibitors of Vif binding to APOBEC3G peptide, primary screen, biochemical, TR-FRET, GST-Vif 1-94, biotin-A3G peptide, dose response retest (AID 1117319) | TR-FRET GST-Vif / biotin-A3G peptide binding; higher % means a stronger effect; test concentration not given here; strong numbers were not always called active | Virion infectivity factor (Human immunodeficiency virus type 1 group M subtype B (isolate … | hit rate 0.57% among 260,000 | inhibition, %; hits with a dose series show IC50 in µM;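 active means above the screen mean plus three standard deviations and confirmed in dose response; inconclusive means results disagree or hit not tested in dose response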;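 further: Vif residues 1-94 fused to GST binding biotinylated APOBEC3G peptide 110-148; 0% = full assay without inhibitor and 100% = GST in place of GST-Vif; retest series ran down from 100 µM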
rRNA inh HTS = reduced GFP signal of wild-type E. coli, primary screen, bacterial rRNA inhibitor project, GFP/RFP fluorescence, OD600, single point. hit rate 1.6% among 350,000. E. coli WT GFP vs humanized-ribosome RFP mutants, 24 h; stronger effect = lower value; DMSO median 0, no signal -100. AID 720706, 2013. GFP signal change (wild-type ribosome), % (test concentration not listed);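 active means significant combined selectivity score with lowered wild-type GFP, culture density cut under 30%, mutant RFP and density less affected; inactive means any of these conditions unmet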; further: one replicate is shown; some compounds called inactive have numbers as strong as hits
Calb FLC = C. albicans growth inhibition with fluconazole, primary screen, CaCi-2 strain, Alamar Blue fluorescence; C. albicans CaCi-2 (fluconazole-resistant clinical isolate) + fluconazole, 48 h; growth inhibition, % (concentration not given with the values); hit rate 0.57% among 300,000; AID 1979, 2009;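 active means most replicates above 75%; inconclusive means exactly half above 75%; inactive means most below 75%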;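 further: all wells also contain fluconazole at 8 µg/ml as a sub-toxic cotreatment; 0% = median of DMSO wells and 100% = median of geldanamycin control wells; wells of about 8 µL received 7.5 nL stock; the first replicate is given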
A1 inh = caspase 3/7 activation in MEF A1-2A-BIM cells, primary screen, A1 inhibitor project, cell-based, luminescence, HTS. Caspase-Glo 3/7 luminescence, 3 h; percent of clofoctol response, vehicle zero. hit rate 0.066% among 330,000. AID 2462, 2010. caspase activation, % (test concentration not listed);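 active means over half of replicate activation scores above 10%, or exactly half above 10 with the replicate mean above 10; inconclusive means replicate mean below 10 yet half the replicates above 10; inactive means over half of replicates below 10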;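 further: wells of about 30 µL received 50 nL stock; many hits fall short of the cut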
rRNA inh HTS OD600 = recorded beside rRNA inh HTS, whose call it bears; OD600 change, %; measured here: OD600 growth;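 optical density of the mix in the first replicate; 0 = DMSO median and -100 = no signal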
rRNA inh HTS RFP = second read-out of rRNA inh HTS, no call of its own (marks repeat the call); RFP signal change, %; measured here: RFP humanized mutant strains;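 first replicate; 0 = DMSO median and -100 = no signal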
The depositor's hits bear a star; ? = inconclusive; . = not tested or not shown; & = joins results of further samples.

compound,MLL AF4-AF9 inh,T cruzi repl,RanGTP-Impb inh,Beta apoptosis,Vif A3G,rRNA inh HTS,rRNA inh HTS OD600,rRNA inh HTS RFP,Calb FLC,A1 inh
COC(=O)c1[nH]c(C)c(/C(O)=C2\C(=O)C(=O)N(CCN(C)C)C2c2ccc(C)o2)c1C (centres undefined),.,-1,0.0,0,-10%,.,.,.,-2,1.2
CCOc1ccc(C)cc1S(=O)(=O)Nc1cccnc1,.,-22,2.1,-1,5%,.,.,.,-1,0.4
Cc1nc2ccccc2c(=O)n1/N=C/C=C/c1ccccc1,3.7,-7,-0.8,3,-4%,-6,-1,-0.9,25,0.2
CCCCn1c(N)c(N(CCOC)C(=O)CN(C)S(=O)(=O)c2ccc(Cl)cc2)c(=O)[nH]c1=O,-2.1,-8,-2.9,-5,4%,.,.,.,0,0.7
CC1=CC(=C(C#N)c2nc3ccccc3s2)C=C(C)N1Cc1ccco1,-10,64*,4.6,14,20%,8,4,-3.9,10,-0.9
c1ccc(CN(Cc2ccco2)C(c2ccncc2)c2nnnn2C2CCCC2)cc1 (centres undefined),.,-4,-0.3,-2,20%,.,.,.,6,-0.1
CS(=O)(=O)NCCSCc1ccc(Cl)cc1,.,-6,0.5,-7,1%,.,.,.,17,1.5
CCCC1=NN2C(=N)/C(=C\c3cc(C)n(-c4cc(C)cc(C)c4)c3C)C(=O)N=C2S1,.,18,0.4,-1,.,.,.,.,12,0.8
Cc1cc(C)c(C#N)c(SCc2nc3ccccc3c(=O)[nH]2)n1,2.8,44,2.6,4,-4%,14,12,5.0,-4,-0.5
CCN(C(=O)c1cc2c(=O)[nH]c3ccc(C)cc3c2s1)c1ccccc1C,-0.7,56*,2.7,11,30%,12,13,2.6,5,-1.9
O=C(COC(=O)CCCNC(=O)c1ccc(Cl)cc1)NCc1ccccc1Cl,.,-3,-0.1,3,-8%,.,.,.,-7,0.2
CC(C)(C)c1ccc(COC(=O)CNC(=O)CNC(=O)Cc2ccccc2)cc1,.,0,-0.2,-4,4%,.,.,.,0,-0.2

compound,MLL AF4-AF9 inh,T cruzi repl,RanGTP-Impb inh,Beta apoptosis,Vif A3G,rRNA inh HTS,rRNA inh HTS OD600,rRNA inh HTS RFP,Calb FLC,A1 inh
COc1ccc(-c2nsc(C(=O)N(c3ccc(F)cc3)C(C(=O)NC3CCCC3)c3ccc(OC)cc3)c2N)cc1 (centres undefined),.,32,?,-3,-1%,.,.,.,19,.
Cc1cc(N2CCN(C/C=C/c3ccccc3)CC2)n2ncnc2n1,.,5,1.6,28,-2%,.,.,.,-1,0.5
COc1ccccc1NC(=O)CSc1nnnn1-c1ccc(C(=O)O)cc1,-15,-14,-3.5,-10,1%,17,0,1.4,3,-0.7
O=C(C[n+]1ccccc1)Nc1nc2ccccc2s1,.,-16,0.8,1,1%,.,.,.,3,-0.8
COc1ccc(OCCOC(=O)CNC(=O)c2ccc(Cl)cc2Cl)cc1,-5.7,-21,-2.2,-4,0%,-4,-12,0.5,-5,-0.9
Cc1onc(-c2ccccc2)c1C(=O)Nc1nnc(CC(C)C)s1,-6.6,-8,7.5,-4,.,-24,-24,-4.1,10,0.0
CC(C)C[C@H](NC(=O)N1c2ccccc2NC(=O)[C@@H]1C(C)C)C(=O)N[C@@H](Cc1ccccc1)C(=O)O,-1.8,-17,-1.6,0,.,.,.,.,-4,0.9
CC(C)c1nnc(NC(=O)c2cccnc2)s1,.,-13,-0.7,6,9%,.,.,.,-1,-0.4
CCN1CCN(c2ccc(NC(=O)c3cccnc3)cc2Cl)CC1,.,1,0.8,-5,1%,.,.,.,?,-0.8
C[C@H](CO)N1C[C@H](C)[C@@H](CN(C)S(C)(=O)=O)Oc2ccc(NC(=O)NC3CCCCC3)cc2C1=O,-1.0,.,.,-4,.,0&0,9&2,-2.1&-0.4,.,0.8
CN1CCN(c2nc(-c3ccc(Cl)cc3)nc3ccccc23)CC1,12,42,?,.,-6%,15,12,-0.6,18,.
CC(=O)c1cc(-c2ccccc2)n(CC(=O)NCc2cccs2)c1C,.,7,-1.4,-8,26%,.,.,.,-1,1.2

compound,MLL AF4-AF9 inh,T cruzi repl,RanGTP-Impb inh,Beta apoptosis,Vif A3G,rRNA inh HTS,rRNA inh HTS OD600,rRNA inh HTS RFP,Calb FLC,A1 inh
COC(=O)c1cc(Cl)c(NS(=O)(=O)c2ccccc2)cc1OC,.,-1,-5.1,0,0%,.,.,.,1,-1.6
CC(C)(C)CC(=O)Nc1ccc(Nc2ccccc2)cc1,.,6,0.3,.,15%,.,.,.,5,1.5
O=C(Cc1ccc(S(=O)(=O)N2CCOCC2)s1)N1CCN(S(=O)(=O)c2cccc(Cl)c2)CC1,-4.5,49,2.2,.,7%,3,-3,18,-5,0.0
CCOC(=O)N1CCC(Nc2c(OCC)c(=O)c2=O)CC1,6.9,-3,4.5,-4,-1%,2,9,-1.4,-5,0.7
COc1ccc(-n2cnnc2SCC(=O)Nc2cc(S(=O)(=O)N3CCCCC3)ccc2C)cc1,.,8,0.1,0,-4%,.,.,.,2,0.4
Cc1ccccc1/C=N/N1CCN(c2ccccc2)CC1,.,4,-0.3,4,-3%,.,.,.,1,-4.1
COC(=O)c1ccc(COc2cc(O)c3c(c2)OC(C)(C)CC3=O)cc1,.,25,-4.0,5,32%,.,.,.,9,-2.1
Cc1cc(NS(=O)(=O)c2ccccc2)c([N+](=O)[O-])cc1C,.,6,3.1,-5,13%,.,.,.,8,-0.7
CCOC(=O)N1CCN(C(=O)c2ccccc2NC(=O)c2ccc(OC)cc2)CC1,.,-23,1.4,2,-2%,.,.,.,9,-1.1
CCOC(=O)[C@H]1[C@H]2COc3ccc(Cl)cc3[C@@H]2N2C(=O)[C@@H](CO)NC(=O)[C@@]12C,0.2,.,.,-2,.,7,-2,-0.1,.,-0.7
CC(C)(C)c1ccc(N/N=C(\C#N)S(=O)(=O)C(C)(C)C)cc1,0.6,3,1.8,27,.,10,-5,0.9,-1,0.1
CCc1cccc(CC)c1C(O)c1cccnc1 (centres undefined),.,-2,-1.0,-18,.,.,.,.,5,0.6

compound,MLL AF4-AF9 inh,T cruzi repl,RanGTP-Impb inh,Beta apoptosis,Vif A3G,rRNA inh HTS,rRNA inh HTS OD600,rRNA inh HTS RFP,Calb FLC,A1 inh
O=C(c1ccc(=O)oc1)N1CCCc2ccccc21,.,-6,3.4,-1,38µM*,.,.,.,-5,0.1
Cc1ccc(NC(=S)Nc2ccc(S(=O)(=O)Nc3ncccn3)cc2)cc1Cl,.,4,-4.2,2,.,.,.,.,-5,-0.3
CC1CCN(C(=O)COC(=O)c2cc3ccccc3cc2O)CC1,.,-11,1.4,-4,-3%,.,.,.,?,0.3
O=C(Nc1cccnc1Cl)c1cc(-c2ccc(Br)cc2)on1,1.0,-12,4.5,-2,.,7,11,1.9,1,0.0
O=C(O)c1cccc(CN2C(=O)S/C(=C/c3cccc([N+](=O)[O-])c3)C2=O)c1,-2.4,22,1.9,-4,.,6,-2,-3.5,-5,0.7
CC(=O)Nc1ccc(C(=O)CSc2nnc(C)o2)cc1,.,0,-2.1,.,15%,.,.,.,-6,-0.5
Cc1ccc(NC(=O)Nn2cnnc2)cc1Cl,0.3,-14,3.4,-4,.,16,10,9.1,9,0.0
COc1ccc(/C=N/Nc2nc(-c3ccc(Cl)cc3)cc(C(F)(F)F)n2)cc1OC,.,23,-1.5,12,.,.,.,.,-5,0.2
COc1ccc(CCNC(=O)c2ccc(CS(=O)Cc3ccc(C)cc3)o2)cc1OC (centres undefined),-0.2,-7,1.5,2,.,-3,-9,-1.8,-3,0.2
Cc1ccccc1NC(=O)CSc1nnc(Cc2cccn2C)n1-c1ccc(F)cc1,0.2,1,3.2,-5,-5%&-6%,0,3,3.2,19,-0.1
COc1ccccc1NCC(=O)N/N=C/C=C/c1ccccc1,.,-2,2.3,4,9%,.,.,.,-20,-0.2
COc1cc(/C=N/Nc2nc(C)cc(=O)[nH]2)cc(OC)c1O,-0.9,-8,4.3,-1,1%,-3,14,-0.7,47,2.1

compound,MLL AF4-AF9 inh,T cruzi repl,RanGTP-Impb inh,Beta apoptosis,Vif A3G,rRNA inh HTS,rRNA inh HTS OD600,rRNA inh HTS RFP,Calb FLC,A1 inh
COc1cc(NC(=O)C2CC2)c(OC)cc1NC(=O)c1ccco1,-15,-9,19*,-2,.,3,-1,-3.7,-4,-0.1
O=C(CSc1ccccc1)Nc1ccc2sccc2c1,-3.3,-7,1.2,-4,-1%,-3,-2,2.8,3,-0.2
C=CCn1c(SCC(=O)Nc2ccccc2-c2ccccc2)nc2cc(C(=O)O)ccc2c1=O,2.2,9,-3.6,2,11%,-17,-25,-4.7,8,1.1
O=c1c(-c2ccccc2Cl)coc2c(CN3CCCCC3)c(O)ccc12,0.9,4,1.2,-12,-2%,9,11,-1.9,1,0.5
COc1ccc(-c2nnc(SCC(=O)NC3CCCC3)n2C)cc1,0.8,-9,-1.0,-10,.,4,9,-1.3,6,0.6
COc1ccccc1C(=O)NCCC(=O)Nc1ccc(S(=O)(=O)N2C(C)CCCC2C)cc1 (centres undefined),0.8,.,.,-7,-14%,-11,-41,1.8,.,-0.2
COc1ccccc1C(=O)Nc1ccc(Nc2ccccc2)cc1,1.4,-9,1.0,.,.,-3,-4,-1.6,-9,-0.4
Cc1ccc(C(=O)NCCCn2ccnc2)cc1C,0.1,-12,-1.7,-7,.,2,4,-3.4,-5,1.1
Cc1csc(=O)n1CCC(=O)OCC(=O)c1c(N)n(C)c(=O)n(C)c1=O,-0.8,-1,-0.1,2,2%,4,4,-1.3,4,1.3
O=[N+]([O-])c1ccc(Cl)cc1NCCCN1CCOCC1,2.9,15,.,1,.,10,4,1.4,.,0.2
O=C(O)/C=C/c1cn(-c2ccccc2)nc1-c1cc2ccccc2o1,0.8,0,4.1,-5,?,-41,-56,-13,8,0.5

A portion of the library; the hit share may differ from the screen's.
